Screening results as filed in PubChem BioAssay.
CtBP-E1A blk: qHTS Assay for Inhibitors of the CtBP/E1A Interaction; activity change, % (test concentration not listed); 340,000 tested, 0.49% active; AID 651724, 2012; AlphaScreen GST-E1A/His-CtBP binding, 1536-well; active compounds read low; control for the full effect not named in the record; CtBP / adenovirus E1A interaction (AlphaScreen); in the data active means activity change below about -65%; inconclusive means about -30% to -65%; inactive means above about -30%; also: % is scaled to controls: 0 for no effect and ±100 for the full control effect
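Steps: dispense buffer (Tris pH 8.0, NaCl 300 mM, TCEP 1 mM, BSA, Tween 20); add 5X protein mix (GST-E1A, His-CtBP, 125 nM each); pin 23 nL compound; 2 h at 37 °C, dark; add 5X beads (50 ug/mL); 1 h; read.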
Sfp PPTase inh: qHTS Assay for Inhibitors of Bacillus subtilis Sfp phosphopantetheinyl transferase (PPTase); 310,000 tested, 3.5% active; 4'-phosphopantetheinyl transferase ffp (Bacillus subtilis), Q9F4F7; AID 1490, 2009; Biochemical Sfp PPTase activity, qHTS; Potency, µM, inactives show max response, negative = inhibition, actives largely listed as inhibitors; active = well fitted inhibition curve with a large enough effect; inconclusive = small, poorly fitted or top-dose-only effect, or another doubt; inactive = no such curve, though single readings can be large or run the other way;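 also: the enzyme is Sfp with the accession as filed and its product quenches rhodamine fluorescence; potency is read from the fitted curve at half-maximal effect; 0% = enzyme reaction without inhibitor and -100% = no enzyme wells; top concentration of the series not given in the record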
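Step 1, compound plus 15 nM Sfp-PPTase, 15 min, room temperature. Step 2, add rhodamine-CoA (5 uM) and BHQ-2-YbbR (12.5 uM). Step 3, read 525/598 nm fluorescence at 0 and 30 min.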
gsp antag: qHTS for Antagonists of gsp, the Etiologic Mutation Responsible for Fibrous Dysplasia/McCune-Albright Syndrome: qHTS. gsp-mutant cells, cAMP HTRF, 30 min; control for the full effect not named in the record. Potency, µM (top dose mostly 76.9 µM), without a hit: at the highest dose activity change, negative = inhibition, hits mostly inhibitors. 340,000 tested, 0.4% active; active = falling curve of any shape with a large fitted effect; inconclusive = falling curve, mostly with a smaller effect; inactive = flat or rising curve; cell line not stated here;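 also: intracellular cAMP measured with PDE inhibitor Ro 20-1724 present during compound exposure; potency is read from the fitted curve at half-maximal effect; % is scaled to controls: 0 for no effect and ±100 for the full control effect; nearly all actives have a fitted effect of over 65% in size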
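HTRF cAMP measurement after 30 min RT detection following 30 min, 37C compound treatment alongside […] (added as 300 uM solution) in G418-selected cells seeded at 2000/well and grown 16–24 h.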
Menin-MLL FL inh: qHTS Assay for Inhibitors Targeting the Menin-MLL Interaction in MLL Related Leukemias: Competition With Fluorescein Labeled MLL-derived Peptide; Fluorescence polarization, fluorescein-MLL peptide displacement from menin; AID 1766, 2009; FP activity change, % at 61.4 µM; 290,000 tested, under 10 active; inconclusive = falling polarisation curve, or a change in total fluorescence; inactive = total fluorescence flat and polarisation flat or rising; no compound was filed as active; the % refers to the polarisation; negative = inhibition;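 also: % of control where 0% means no effect; inhibitors lower the polarisation; unlabelled MLL peptide was the positive control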
ClpP mod: qHTS Assay for Activators of ClpP. ATP-dependent Clp protease proteolytic subunit (Bacillus subtilis (strain 168)), P80244. purified B. subtilis ClpP, FRET peptide cleavage, 20 min. Potency, µM (titrated, usually from 57.5 µM), inactives show at the highest dose activity change, negative = active. 340,000 tested, 1.9% active. AID 651965, 2013; active = well fitted falling curve with a large enough effect; inconclusive = small, poorly fitted or top-dose-only effect; inactive = no such curve, though single readings can be large or run the other way; also: potency is read from the fitted curve at half-maximal effect; the source files actives as falling curves though it sought activators and does not explain the sign; nearly all actives have a fitted effect of over 65% in size; many hits overshoot -100%
Target sequence (P80244 whole entry, looked up): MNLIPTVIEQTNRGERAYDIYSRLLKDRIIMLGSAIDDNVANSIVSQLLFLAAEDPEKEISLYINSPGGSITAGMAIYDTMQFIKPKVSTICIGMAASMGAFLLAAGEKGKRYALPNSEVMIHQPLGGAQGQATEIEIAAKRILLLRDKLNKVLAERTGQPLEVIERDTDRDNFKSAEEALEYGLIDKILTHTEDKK
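ClpP 10 microg/mL final, pH 8 Tris/KCl buffer with BSA, glycerol, Tween-20; compound pinned in; FRET-FV substrate; RT 20 min; Ex320/Em430; ΔFRET vs ADEP 5.8 microM, DMSO, no enzyme.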
gsp ag: qHTS for Agonist of gsp, the Etiologic Mutation Responsible for Fibrous Dysplasia/McCune-Albright Syndrome: qHTS; gsp mutant cells, cAMP HTRF, 30 min; control for the full effect not named in the record; Potency, µM (highest dose often 76.9 µM), for the others: at the highest dose activation (cAMP increase), most hits filed as activators; 340,000 tested, 0.13% active; AID 624287, 2012; active = well fitted activation curve with a large enough effect; inconclusive = small, poorly fitted or top-dose-only effect, or another doubt; inactive = no such curve, though single readings can be large or run the other way; cell line not stated here;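 also: phosphodiesterase inhibitor Ro 20-1724 added with compounds to block cAMP breakdown; potency is read from the fitted curve at half-maximal effect; nearly all actives have a fitted effect of over 60% in size; about a fifth of the inactives were tested at one dose only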
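Cells in DMEM/10% FBS with G418 were pretreated with compounds in DMSO plus […] (300 uM stock) for 30 min at 37C. cAMP was measured by HTRF (cAMP-d2 plus anti-cAMP antibody-K) after 30 min at room temperature.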
TRPV1 PAM: HTS Assay for Compounds that Act as Potentiators of the Vanilloid Receptor 1; Transient receptor potential cation channel subfamily V member 1 (Homo sapiens), Q8NER1; TRPV1-expressing cells, Fluo-8 calcium influx, capsaicin EC20 potentiation; host cell line not named in the record; control for the full effect not named in the record; potentiation, % at 8.33 µM; 320,000 tested, 0.02% active; AID 540277, 2011; active means potentiation above 80%; inconclusive means 30% to 80%; inactive means below 30%; also: 0% is about no effect
Target sequence (Q8NER1 whole entry, looked up): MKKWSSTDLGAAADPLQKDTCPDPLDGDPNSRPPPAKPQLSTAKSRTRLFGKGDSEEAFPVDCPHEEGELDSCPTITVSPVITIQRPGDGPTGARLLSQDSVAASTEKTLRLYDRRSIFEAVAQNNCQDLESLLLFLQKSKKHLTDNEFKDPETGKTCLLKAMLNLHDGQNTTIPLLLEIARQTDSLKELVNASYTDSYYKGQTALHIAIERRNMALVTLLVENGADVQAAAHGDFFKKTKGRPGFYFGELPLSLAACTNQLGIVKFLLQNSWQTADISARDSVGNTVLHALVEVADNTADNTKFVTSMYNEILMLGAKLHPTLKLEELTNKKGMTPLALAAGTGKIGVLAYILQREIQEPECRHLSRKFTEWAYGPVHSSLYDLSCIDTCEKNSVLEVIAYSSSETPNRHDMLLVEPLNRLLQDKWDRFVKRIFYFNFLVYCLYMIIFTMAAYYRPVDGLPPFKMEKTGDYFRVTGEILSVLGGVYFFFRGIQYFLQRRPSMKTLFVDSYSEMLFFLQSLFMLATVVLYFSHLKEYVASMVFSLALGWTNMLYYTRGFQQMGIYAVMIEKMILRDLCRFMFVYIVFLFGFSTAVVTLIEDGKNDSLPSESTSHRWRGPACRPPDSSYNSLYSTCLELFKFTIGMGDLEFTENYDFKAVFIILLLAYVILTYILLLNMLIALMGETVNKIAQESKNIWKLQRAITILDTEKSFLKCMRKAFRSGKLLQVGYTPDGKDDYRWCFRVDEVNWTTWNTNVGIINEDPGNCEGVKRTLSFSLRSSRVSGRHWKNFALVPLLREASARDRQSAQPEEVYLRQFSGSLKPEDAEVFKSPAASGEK
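Fluo-8 calcium influx in TRPV1-expressing cells, kinetic read (ex 480/em 520 nm). Compound added and read 3 min for agonist activity, followed by capsaicin at EC20 final and 2 min further read for enhancement.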
Numbers without * were called inactive; ? = inconclusive; . = no result given; & = joins results of further samples; [ ] = dose if it differs, or a comment. Hits appear at their usual frequency; 5.3% or so of the library scored in one or more.

Fields: CtBP-E1A blk, Menin-MLL FL inh, gsp ag, gsp antag, Sfp PPTase inh, TRPV1 PAM, ClpP mod
- Cc1cccc(NC(=O)c2ccc(S(=O)(=O)N3CCCCC3)cc2)n1
    2, 6.5, -48%, -6%, 6%, 12, -2.9%
- CCC(Sc1ccccc1C(=O)O)C(=O)O (stereo not given)
    3, -1.1, -4%, 10%, 3%, 19, -1.6%
- CC(=O)N1CCc2c(sc(NC(=O)c3ccc4c(c3)OCCO4)c2C#N)C1
    4, 11, ?, 23%, -2%, -6, -18%
- CCCC(=O)NC(c1ccc(OC)c(OC)c1)c1cc(Cl)c2cccnc2c1O (stereo not given)
    -79*, 1.6, -4%, -4%, ?, 10, 0.5%
- CC1=C/C(=N\NC(=S)NCCc2ccccc2)CC(C)(C)C1
    ?, 5.1, 12%, -7%, 3%, 16, .
- O=C(CC1C(=O)NCCN1Cc1cccc(Oc2ccccc2)c1)NCC1CCOCC1 (stereo not given)
    ., -11, -1%, -5%, -8%, 1, -5.3%
- CCCCCC(=O)Nc1cccc(C2=NOC3(C2)C[C@H](C(N)=O)N(C(=O)c2ccccc2C(=O)c2ccccc2)C3)c1 (stereo not given in full)
    0, 3.9, ., -17%, 9%, -11, -1.8%
- C/C=C/c1ccc(OCC(=O)OCC(=O)NC2CC2)c(OC)c1
    6, 0.5, ?, -8%, 21%, -8, -1.7%
- Cc1ccc(NC(=S)Nc2cc(-c3ccccc3)[nH]n2)cc1Cl
    0, -1.5, 16%[15.4 µM], -12%, 21%, 12, .
- C[C@@H](c1ccccc1)N1C[C@H]2CCCN2c2cc(Br)ccc2S1(=O)=O
    1, ., ., -7%, ., ., -0.8%
- COc1cc(NC(=O)Cn2cnc(S(=O)(=O)N3CCc4ccccc43)c2)cc(OC)c1OC
    -25, -2.7, -1%, 7%, 17%, 6, .
- CC(C)[C@H](N)C(=O)NC[C@H]1O[C@@H](n2cnc3c(N)ncnc32)[C@H](O)[C@@H]1O
    6, ., ., 15%, ., ., 0.0%
- O=C(CN1C(=O)/C(=C\c2ccc(F)cc2)Oc2ccccc21)N1CCN(c2ccccn2)CC1
    10, 5.1, ?, -2%, 20%, -3, 22µM*
- Cc1nc(SCC(=O)N2CCN(C(=O)c3ccco3)CC2)c2c(C)c(C)sc2n1
    3, 1.1, ?, 14%, 24%, ?, -1.9%
- O=C1NCCCC1C(=O)N/N=C/c1cccc(Cl)c1 (stereo not given)
    4, 3.0, 4%[15.4 µM], 8%, 3%, 25, .
- CCN(CC)C(=O)Cn1cnc([N+](=O)[O-])n1
    0, 7.7, -65%[inhibitor], 3%, 5%, 21, 0.1%
- CCc1ccc(C(C)NC(=O)c2ncn[nH]2)cc1 (stereo not given)
    8, 3.1, 14%, 17%, -1%, 1, 1.3%
- O=C(C[n+]1ccccc1)N1c2ccccc2Sc2ccccc21
    0, -0.5, -9%[15.4 µM], 11%, 13%, -6, .
- Cc1ccc(-c2noc(CN(C(=O)CCN3C(=O)c4ccccc4C3=O)C(C)C)n2)cc1
    3, 6.8, -48%[inhibitor], -1%, 15%, -24, 1.1%
- O=C(CSc1ccc(-c2cccs2)nn1)Nc1ccccc1F
    -4, -1.5, -5%[15.4 µM], -70%, -18%, -1, .
- Cc1ccc(C(=O)ON=C2CCN(c3ccc([N+](=O)[O-])cc3)CC2)cc1
    -14, 8.0, -6%, -2%, -7%, -5, -2.5%
- CCNC(=O)CC1SC(=Nc2cccc3ccccc23)N(C)C1=O (stereo not given)
    10, 0.3, -35%[inhibitor], -2%, -15%, -10, -17%
- COCCNC(=O)CN(C(=O)Cn1nnc2ccccc21)c1cc(C)cc(C)c1
    12, -4.6, 4%, -2%, 7%, 3, .
- CC(C)(CNS(=O)(=O)c1ccc(Cl)cc1)N1CCCCC1
    10, 3.0, -51%[inhibitor], 3%, 5%, -14, 0.1%
- CCOCCCN(C(=O)c1snc(C(N)=O)c1N)C(C(=O)NC1CCCC1)c1ccc(O)c(OC)c1 (stereo not given)
    23, -0.5, 11%[15.4 µM], ., 2%, 19, .
- CNC(=O)c1ccc2nc(NC(C)=O)sc2c1
    12, 2.2, 11%, 1%, -7%, 4, -0.3%
- O=C(NCC(c1ccco1)N1CCCC1)c1ccc(-n2cccn2)cc1 (stereo not given)
    -12, ., 6%, -3%, ., ., .
- CCO[C@H]1OC(C(=O)O)=C[C@@H](c2cn(C(C)=O)c3ccccc23)[C@@H]1CCCO
    1, ., ., -2%, ., ., -1.1%
- COc1ccc(OC)c(C(=O)CSc2nnc(-c3cccnc3)n2C)c1
    2, 1.2, ?, 1%, 10%, 7, 1.4%
- O=C(NC1CCCc2ccccc21)C1CCCC1 (stereo not given)
    4, -3.0, ?, -6%, 11%, 3, .
- Cc1ccc(-c2nn(-c3ccccc3)cc2C(=O)Nc2cccc(S(=O)(=O)N3CCOCC3)c2)cc1
    -2, 10, -1%, -4%, 22%, 10, ?
- CCOC(=O)C1CCCN(c2c(N3CCc4ccccc4C3)c(=O)c2=O)C1 (stereo not given)
    ., -1.9, ., ., 30%, -23, .
- Cc1c(C)c2ccc(OCC(=O)N3CCC(C(=O)O)CC3)cc2oc1=O
    1, -3.2, ., -7%, 15%, 7, 3.8%
- Cc1cc(Cl)ccc1NC(=S)NCCC(c1ccccc1)c1ccccc1
    -1, -2.2, -21%, ?, 35%[activator], -7, -1.3%
- CCCCP(=O)(c1ccccn1)c1ccccn1
    -6, 1.0, 0%, 16%, -7%, 10, -2.0%
- O=C(COC(=O)c1cc(=O)c2ccccc2o1)Nc1ccccc1F
    3, ., 16%, -5%, ., ., .
- CCOc1ccccc1N1CCN(C(=O)Nc2ccc(Cl)c(Cl)c2)CC1
    ., 5.7, ., ., 0%, -6, .
- CC1CCN(c2nc3ccccn3c(=O)c2C=O)CC1
    10, 3.2, 6%, 8%, 18%, 2, 2.7%
- Cc1ccc(C)c(CN2C(=O)NC3(CCCCCC3)C2=O)c1
    -8, 0.9, -1%[15.4 µM], -5%, 3%, -12, -1.0%
- CC/C(C)=N/NS(=O)(=O)c1ccc(C)c([N+](=O)[O-])c1
    -18, -1.7, 2%[15.4 µM], 0%, ?, 8, .
- CCOc1ccc2nc(NC(=O)CSc3ccccc3)sc2c1
    -1, 0.7, -6%, 2%, 0%, 4, -2.0%
- CCCNC(=O)c1ccc(N2CCC3(CC2)CC(c2ccccc2)=NO3)c([N+](=O)[O-])c1
    -10, 0.3, ., -23%, 10%, -8, -0.9%
- C#CCNCCS(=O)(=O)N(Cc1ccc(Br)cc1)[C@@H](C)C(=O)O
    -6, ., ., 6%, ., ., -0.6%
- Cc1nc2cc(N3CCOCC3)c(NC(=O)C3CC3)cc2c(=O)n1Cc1ccccc1
    3, 1.1, 26%, 6%, -3%, 14, -2.9%
- CC(=O)c1ccc(-c2[nH]c3ccccc3c2CCN2C(=O)c3ccccc3C2=O)cc1
    -1, ., ., ?, ., ., 28%
- Cc1cc(NC(=O)Cn2nc(-c3ccccc3F)ccc2=O)ccc1-n1cnnn1
    4, 5.2, -4%, 1%, -3%, -7, -0.1%
- Nc1nc(SCc2ccc(Cl)c(Cl)c2)n[nH]1
    3, -4.1, -18%, -5%, -1%, -8, .
- CCOC(=O)[C@H]1[C@H]2COc3ccccc3[C@@H]2N2C(=O)CN(Cc3ccc(C)cc3)C(=O)[C@@]12C
    -1, ., ., -5%, ., ., -1.3%
- CCCCC(NC(=O)Cc1c(C)c2cc3c(-c4ccccc4)coc3c(C)c2oc1=O)C(=O)O (stereo not given)
    ?, -1.3, ?, -21%, -5%, 1, .
- COc1ccc2c(c1OC)C(=O)N1C2SC(C)(C)[C@H]1C(=O)NCC(C)C (stereo not given in full)
    0, ?, 16%, 2%, 8%, 8, -28%
- CC1(C)Cc2c(cnn2-c2ccccc2)C(NC(=O)CCN2CCCC2=O)C1 (stereo not given)
    ., -5.1, ?, -17%, 21%, -11, 5.2%
- CCCN1CCN(CCCNC(=O)Cn2nc(C)n3c(cc4cc(F)ccc43)c2=O)CC1
    1, 2.2, 28%, 20%, 21%, 4, 3.6%&-13%
- CCOc1ccccc1NC(=O)Cn1nnc(C(=O)Nc2ccc(C)cc2)c1N
    19, 6.2, 0%, -13%, 28%, 20, -16%
- COc1ccc(C(C(=O)NC2CCCCC2)N(C(=O)c2ccco2)c2ccc(-n3cnnn3)c(C)c2)cc1 (stereo not given)
    13, ., 22%, -4%, ., ., 0.3%
- Cc1ccc(S(=O)(=O)NCc2cccnc2)cc1
    12, 0.0, 25%[15.4 µM], -7%, 15%, 8, -7.6%
- CC(C)c1[nH]c(=O)c(C#N)c2c1CSC(C)(C)C2
    20, 7.0, -2%, 3%, 11%, -12, ?
- CCN(CC)c1ccc(/C=C2\CCC(/C=C(/C#N)C(=O)Nc3ccccc3F)=C2N2CCOCC2)cc1
    -14, ., -12%, 3%, ., ., .
- COc1ccc(/C=C/c2c(-c3ccc(OC)cc3)oc(=O)c3cc(OC)c(OC)cc23)cc1
    2, ., ., -11%, ., ., 5.2%
- COC(=O)[C@]1(Cc2ccccc2)N[C@H](CN(C)C(C)=O)[C@@H]2C(=O)N(Cc3ccccc3)C(=O)[C@@H]21
    9, ., ., 3%, ., ., 2.8%
- O=C(OCc1nc2ccc(Cl)cc2n1CCO)c1ccc2c(c1)OCO2
    -11, 8.5, -32%, -15%, -6%, ., -3.6%
